# High-throughput results deposited in PubChem BioAssay by National Center for Advancing Translational Sciences (NCATS).
# Vaccinia Venus: vaccinia inhibition (Venus reporter); AID 720580; Vaccinia virus Venus reporter expression, fluorescence; hit rate 0.46% among 330,000; Potency, µM (highest dose often 36.5 µM), for the others: at the highest dose activity change, negative = inhibition, usual class: inhibitors; active means well fitted inhibition curve with a large enough effect; inconclusive means small, poorly fitted or top-dose-only effect; inactive means no such curve, though single readings can be large or run the other way; tested in A549 cells; note: nearly all actives have a fitted effect of over 30% in size; inactives centre near -10
# Vaccinia mCherry: vaccinia inhibition (mCherry reporter); Vaccinia virus mCherry reporter infection, fluorescence; about a quarter of the inactives have no number; Potency, µM (top dose mostly 36.5 µM), without a hit: at the top dose activity change, negative = inhibition, usual class: inhibitors; hit rate 0.63% among 310,000; active = well fitted inhibition curve with a large enough effect; inconclusive = small, poorly fitted or top-dose-only effect; inactive = no such curve, though single readings can be large or run the other way; tested in A549 cells; note: nearly all actives have a fitted effect of over 35% in size; inactives centre near -10
# Starred values were filed as active, the others as inactive; i = inactive; ? = inconclusive; nt = no result given; & = joins results of further samples; [ ] = remark or other dose. % is set by controls: 0 for no effect and ±100 for the full control effect; potency is the fitted concentration of half-maximal effect.
mol	Vaccinia Venus	Vaccinia mCherry
COc1ccccc1/C=C/C=N/n1c(-c2ccc(F)cc2)n[nH]c1=S	0.0%	i
CCN(C(=O)Cn1cnc2ccccc2c1=O)C1CCS(=O)(=O)C1 (stereo not drawn)	-14.4%	-19.4%
NC(=O)C1(S(=O)(=O)c2ccccc2)CCCCC1	-11.0%	nt
CCn1c(SCC(=O)NC(C)C)nnc1-c1cccs1	-3.4%	nt
N#CCCn1cc(C(=O)Nc2ccc([N+](=O)[O-])cc2)c(-c2ccc3c(c2)OCCO3)n1	-7.4%	-3.8%
Cc1cccc(C(C)C)c1NC(=O)COC(=O)CNS(=O)(=O)c1ccccc1	-13.6%	-22.1%
COc1cccc(CNC(=O)C2=C(C)C(=O)OC23CCN(C(C)=O)CC3)c1OC	-2.5%	-2.2%
CCOc1ccc(N2C(=O)C(Cl)=C(Nc3ccccc3O)C2=O)cc1	-17.8%	?
COc1ccc(C[C@H](N)C(=O)N[C@H]2[C@@H](O)[C@H](n3cnc4c(N(C)C)ncnc43)O[C@@H]2CO)cc1	1.58µM*	1.26µM*
CC(C)CSc1nc(N2CCOCC2)c2c(c1C#N)CC(C)(C)SC2	-26.8%	-21.3%

# Already shown: entries from further up.
mol	Vaccinia Venus	Vaccinia mCherry
COc1cccc(CNC(=O)C2=C(C)C(=O)OC23CCN(C(C)=O)CC3)c1OC	-2.5%	-2.2%
CCOc1ccc(N2C(=O)C(Cl)=C(Nc3ccccc3O)C2=O)cc1	-17.8%	?
COc1ccc(C[C@H](N)C(=O)N[C@H]2[C@@H](O)[C@H](n3cnc4c(N(C)C)ncnc43)O[C@@H]2CO)cc1	1.58µM*	1.26µM*
CC(C)CSc1nc(N2CCOCC2)c2c(c1C#N)CC(C)(C)SC2	-26.8%	-21.3%

# (cont.)
mol	Vaccinia Venus	Vaccinia mCherry
COc1cc(NC(=S)N(C)C)c(OC)cc1Cl	0.0%	i
O=C(CN1C=NS(=O)(=O)c2ccccc21)Nc1ccc(Br)cc1	-9.0%	-8.7%
COc1ccc2nc(NC(=O)C3CCN(C(=O)c4ccc(F)cc4)CC3)sc2c1	?	?
CCc1ccc(N2CC(C(=O)NC3CCCCC3C)CC2=O)cc1 (stereo not drawn)	-17.6%	-4.3%
O=C1c2ccccc2-c2onc3c(N4CCN(C5CCCCC5)CC4)cc(NCCO)c1c23	105.8%[activator]	6.0%
O=C(c1cncc(Br)c1)N1CCN(S(=O)(=O)c2ccccc2C(F)(F)F)CC1	-11.5%	-12.4%
COC(=O)c1c(NC(=O)CCCOc2ccc(C)cc2)sc2c1C(C(=O)OC)CC2 (stereo not drawn)	-1.4%[7.34 µM]	-10.8%[7.34 µM]
CC(NC(=O)Cn1c(-c2cccs2)cc2cc(F)ccc21)c1ccccc1 (stereo not drawn)	-6.1%	-3.9%
CC1(C)CC(=O)c2c(oc3ccc(NS(=O)(=O)c4cccc5cccnc45)cc23)C1	-17.7%	?
COc1ccccc1OCc1ccc(C(=O)NCc2cccnc2)o1	-12.5%	-14.8%
N#Cc1c(N)oc(-c2ccco2)c1-c1ccco1	-6.1%	nt
COc1ccc(OC)c(C(=O)CSc2ncc3c(n2)-c2ccccc2N(Cc2ccccc2C)S3(=O)=O)c1	1.2%	-17.9%
CC(C)CCNC(=O)Cc1ccc(NC(=O)N2CCCCc3ccccc32)cc1	-7.5%	-10.6%
O=C(CCC(=O)N1CCN(c2ccccn2)CC1)Nc1nnc(C2CCCCC2)s1	-0.7%	i
CCCCc1nnc(NC(=O)c2oc3ccc(OC)cc3c2C)s1	-11.8%	-15.2%
CCOc1ccc(CNC(=O)C2CCN(S(=O)(=O)N3CCC(C)CC3)CC2)cc1OC	-10.2%&-13.5%	-15.2%
CC(=O)N/C(=C/c1cccnc1)C(=O)Nc1ccc(Cl)cc1	-20.1%	i
CN(CC(=O)Nc1cccc(F)c1)C(=O)CCSc1ccc(F)cc1	-17.6%	-21.8%
CCN(c1ccccc1)S(=O)(=O)c1ccc(OC)c(N=N/C(C(=O)Nc2ccccc2)=C(/C)O)c1	-2.5%	-6.8%
COc1ccc(Cl)cc1NC(=O)CN(C)C(=O)c1n[nH]c2ccccc12	-9.3%	-13.8%
COC(=O)C1=C(CCc2ccccc2)NC(=O)NC1c1ccc([N+](=O)[O-])cc1 (stereo not drawn)	?	?
Cc1ccc(N2CCN(c3ccc(NCc4nc5ccccc5n4C)cc3)CC2)cc1	-7.5%	-6.8%
CCN(CC)C(=O)c1[nH]cnc1C(=O)Nc1ccon1	-10.8%	i
Cc1nn(C)cc1CN1CCOc2ccc(C(C)(O)COc3ccccc3)cc2C1 (stereo not drawn)	?	-3.7%
Cc1nn(-c2cc(Cl)ccc2Cl)c(C)c1C(=O)O	11.3%	i
COc1cc(/C=C2\C(=O)NN(c3ccccc3)C2=O)cc([N+](=O)[O-])c1O	5.4%	2.6%
O=C(O)C(O)c1ccccc1 (stereo not drawn)	-16.1%&-5.9%	-1.8%&-3.7%
COc1ccc(Nc2nnc(C)c3ccccc23)cc1C(N)=O	-9.0%	-14.3%
COCCCNC(=O)c1c[nH]c2ccc(S(=O)(=O)N(C)c3ccccc3C)cc2c1=O	-9.9%	-25.3%
CCC(C)C(CO)NCCCn1cnc2c(OC)ncnc21 (stereo not drawn)	-10.7%	i

# Some of the entries above in another layout:
# Value order – Vaccinia Venus, Vaccinia mCherry
O=C(O)C(O)c1ccccc1 (stereo not drawn)
→ -16.1%&-5.9%, -1.8%&-3.7%
COc1ccc(Nc2nnc(C)c3ccccc23)cc1C(N)=O
→ -9.0%, -14.3%
CCC(C)C(CO)NCCCn1cnc2c(OC)ncnc21 (stereo not drawn)
→ -10.7%, i
CCN(CC)C(=O)c1[nH]cnc1C(=O)Nc1ccon1
→ -10.8%, i

# Further results
mol	Vaccinia Venus	Vaccinia mCherry
CCN1CCN(c2nc3c(S(=O)(=O)c4ccc(C)cc4)nnn3c3ccsc23)CC1	?	?
CCn1c(SCC(=O)Nc2c(C)cccc2C)nnc1-c1nonc1NC(C)=O	-4.8%	-6.2%
N#Cc1c(C#N)c(-c2ccccc2)n(-c2ccc(C(=O)O)cc2)c1N	-11.9%	nt
O=C(NC(c1ccccc1)c1ccc2ccccc2n1)C1CCN(CCOc2ccc(Cl)cc2Cl)CC1 (stereo not drawn)	?	-21.4%
CC(=O)N1CCOc2cc(S(=O)(=O)N3CCN(c4ccccc4)CC3)c(Cl)cc21	-14.3%	-5.6%
O=C(Nc1cccc(F)c1)C1CCN(C(=O)c2ccco2)CC1	9.4%	2.4%
Cc1cc(Cl)ccc1NC(=S)NCC(C)C	-12.5%	i
Cc1ccc(OCCC(=O)Nc2ccccc2C(=O)N2CCCCC2)cc1	-14.3%	-14.1%
Cc1ccc(S(=O)(=O)/C(C#N)=C/c2c(N3CCOCC3)nc3c(C)cccn3c2=O)cc1	-6.7%	-15.3%
CCOc1ccc(/C=C/C(=O)NCCc2ccc(OC)c(OC)c2)cc1	-15.5%	-18.6%
Cc1cc(=O)oc(C)c1C(=O)N1CCCc2ccccc21	-13.1%	i
COc1ccc(C(=O)Oc2ccc(-c3nnco3)cc2)cc1S(=O)(=O)N1CCOCC1	-3.0%	-13.4%
COC(=O)c1c(NC(=O)c2ccc(C)o2)sc2c1CCCCC2	-23.4%	-22.4%
COc1ccc(C(CNC(=O)c2ccccc2SC)N(C)C)cc1 (stereo not drawn)	-2.0%	3.3%
CCOc1ccc(N2CC(NC(=O)c3ccc(S(=O)(=O)N4CCCCC4)cc3)CC2=O)cc1 (stereo not drawn)	-18.6%	-14.2%
CCOC(=O)C1=C(COC(=O)COc2cc(C)ccc2C)NC(=O)NC1C (stereo not drawn)	-4.0%	i
COCCCNC(=O)CC(NS(=O)(=O)c1ccc(C)cc1)c1ccco1 (stereo not drawn)	-3.9%	nt
CCN1CCN(C(=O)C(C)Sc2nc3nc(C)cc(C)n3n2)CC1 (stereo not drawn)	0.0%	i
O=C(/C=C\Nc1ccc(Cl)cn1)c1ccc(Br)cc1	6.9%	-4.4%
COCCOC(=O)c1c(C)n(S(=O)(=O)c2ccc(C)cc2)c2ccc(NS(=O)(=O)c3ccc(C)cc3)cc12	-7.6%	-15.1%

# The list goes on:
structure,Vaccinia Venus,Vaccinia mCherry
COc1cccc(C(C(=O)NC(C)(C)C)N(CCc2ccccc2)C(=O)CCC(=O)Nc2cc(C)on2)c1OC (stereo not drawn),?,?
CCOc1ccc(-n2c(C)nc3cc(C(=O)NCC4CCCO4)ccc32)cc1 (stereo not drawn),-7.5%,-12.6%
COc1ccc(NC(=O)C(c2ccc(C(F)(F)F)cc2)n2c(=O)c(-c3cc4ccccc4[nH]3)nc3ccccc32)cc1 (stereo not drawn),?,?
Cc1ccnc(NS(=O)(=O)c2ccc(NC(=O)c3ccc(N4C(=O)CCC4=O)cc3)cc2)n1,-5.8%,0.7%
CCOC(=O)n1c(=O)[nH]c2ccc(Br)cc21,-5.7%,i
Oc1ccc(C[C@@H]2CNCCN2CCCCC2CCCCC2)cc1,?,-29.2%
CCOC(=O)c1ccc(-c2cc(C)no2)[nH]1,-17.4%,-26.7%
CC1Oc2ccccc2OC1C(=O)Nc1ccccn1 (stereo not drawn),-0.6%,-6.4%
COc1ccc(C(=O)NCCSCc2ccccc2)cc1OC,-5.6%,-3.0%
COc1cccc(C(=O)N/N=C(\C)c2ccc(NC(=O)Cc3ccccc3)cc2)c1OC,-7.9%,i
CCC(C)NC(=O)c1cc2n(n1)CCCN(Cc1ccc(C)cc1)C2=O (stereo not drawn),-1.8%,-17.4%
CC(CNC(=O)CCS(=O)(=O)c1ccc2c(c1)NC(=O)CO2)c1ccccc1 (stereo not drawn),-8.5%,-21.1%
Cc1ccn2c(NC(=O)C(C)(C)Oc3ccc(Cl)cc3)c(-c3cccs3)nc2c1,-22.8%,-21.7%
Cc1ccccc1NC(=O)C1CCN(C(=O)c2cnn(-c3ccccc3)c2-n2cccc2)CC1,-13.1%,i
O=C(NC1CCCCC1)C1CCN(S(=O)(=O)c2cccs2)CC1,-11.1%,-16.4%
CC1CCN(C(=O)COC(=O)c2cccc(S(=O)(=O)N3CCOCC3)c2)CC1,-4.4%,i
CCOC(=O)C1CCCN(C(=O)c2ccc3c(c2)N(Cc2ccccc2)C(=O)c2ccccc2S3(=O)=O)C1 (stereo not drawn),-3.2%,-15.2%
O=C(Cc1cccc2ccccc12)NCC1CCCO1 (stereo not drawn),-6.5%,-12.4%
Cc1nc([N+](=O)[O-])c(C(=O)OCc2cccc(Br)c2)n1C,-11.5%,-3.6%
CCOC(=O)c1c(NC(=S)N2CCOCC2)sc(C)c1C,-13.3%,-4.4%
COC(=O)c1cc(=O)nc(NN=Cc2ccc(C)cc2)s1,-0.9%,i
COc1ccc(Br)cc1[C@H]1[C@H]2C=CC[C@@H](C)[C@@H]2C(=O)N1Cc1ccccc1,-18.9%,-5.3%
NC(=O)c1ccc(N=C2C(=O)Nc3ccc([N+](=O)[O-])cc32)cc1,-20.8%,-8.5%
CCOC(=O)Cc1nn[nH]n1,-0.1%,2.3%
COc1ccc(-c2coc3cc(O)cc(O)c3c2=O)cc1OC,4.5%,i
COc1ccc(NC(=O)c2c(F)cccc2Cl)cc1S(=O)(=O)N1CCOCC1,-6.1%,-17.9%
COc1ccccc1NC(=O)CSc1nnc2c3ccccc3n(C)c2n1,-13.2%,-8.5%
Cc1ccc2oc(=O)c3cc(C(=O)NCc4ccc(Cl)cc4)sc3c2c1,?,-23.5%
COc1cc(C=CC(=O)N2CCN(CC(=O)N3CCCC3)CC2)cc(OC)c1OC,-8.1%,-14.0%
COc1ccc(C(O)P(=O)(Oc2ccccc2)Oc2ccccc2)cc1 (stereo not drawn),-9.6%,-10.5%
COc1cccc(C2=NOC(C(=O)Nc3cc(OC)c(OC)c(OC)c3)C2)c1 (stereo not drawn),-16.0%,-28.8%
Oc1ccccc1Cl,-1.0%,-0.7%
Cc1ccc2c(=O)cc(C(=O)Nc3ccc(S(=O)(=O)N4CCCCC4C)cc3)oc2c1C (stereo not drawn),2.0%,10.4%
Cc1ccc2nc(SCC(=O)NCc3ccc(F)cc3)nc(=O)n2c1,-5.5%,-20.6%
CCOc1ncnc2c1sc1nc3c(cc12)COC(C)(C)C3,-12.0%,-4.3%
O=C(/C=C/c1cccc(F)c1)Nc1ccc(S(=O)(=O)N2CCOCC2)cc1,-21.6%,-27.9%
CCN(CC)CCCC(C)Nc1nccc2cccc(Cl)c12 (stereo not drawn),-9.0%,-11.4%
CCN(CC)CCNC(=O)Cn1c(=O)c2cccn2c2ccc(F)cc21,-10.9%,-8.4%
CCC1=C(c2ccc(C)cc2)S(=O)(=O)N=C1N1CCC(C(=O)NCCCN2CCCCC2)CC1,-0.2%,-16.2%
COc1ccccc1Nc1nc(N)nc(CSC(=S)N2CCCCC2C)n1 (stereo not drawn),-14.5%,-3.4%
Cc1ccc(N2CC(NC(=O)Cc3cccs3)CC2=O)cc1 (stereo not drawn),0.2%[7.34 µM],-3.8%[7.34 µM]
Cc1c(C(=O)Nc2ccccn2)oc2c(Cl)cccc12,-11.1%,i
CCc1nc2c(OCCOc3ccc(F)cc3)cccn2c1N(C)C(=O)CC(C)C,-13.1%,24.4%
Cn1c(C(=O)NCCN2CCc3ccccc3C2)cc2c(=O)[nH]c3ccccc3c21,-11.8%,-12.4%
CCn1c(=O)cc(C(=O)OC)sc1=Nc1ccc(F)c(F)c1,-9.5%,?
